ID4 binder: binders of human ID4 protein, primary screen, biochemical, small molecule microarray, single point; Flag-ID4 binding, fluorescence F/B; calls only; AID 624137, 2012; 31,000 compounds, 1.2% hits;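 active means spot signal over background at p below 0.07 in all four prints; compounds were printed on slides so no solution concentration is given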;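 further: a binder raises fluorescence above local background on the spot; about 2 pmol printed per array spot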
Target sequence (P47928 whole entry, looked up): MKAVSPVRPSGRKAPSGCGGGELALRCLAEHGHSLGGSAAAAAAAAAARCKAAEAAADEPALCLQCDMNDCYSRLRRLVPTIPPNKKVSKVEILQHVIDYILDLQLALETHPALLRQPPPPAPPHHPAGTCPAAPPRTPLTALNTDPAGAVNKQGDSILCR
Calls only; i = inactive. A portion of the library; the hit share may differ from the screen's.

SMILES,ID4 binder
Cc1coc(C)c1C(=O)CC1(O)C(=O)Nc2ccc(Br)cc21 (stereo not drawn),i
Cc1cc(=O)[nH]c(SCC(=O)Nc2ccc(Br)cc2F)n1,i
c1ccc(-c2noc(COc3cccc4ccccc34)n2)nc1,i
COc1cccc(NC(=O)N(C)C[C@@H]2Oc3ncc(C#Cc4cccnc4)cc3C(=O)N([C@@H](C)CO)C[C@H]2C)c1,i
O=C(CN1C(=O)C2C3CC(c4ccccc4)C(C3)C2C1=O)Nc1cccc([N+](=O)[O-])c1 (stereo not drawn),i
O=C(CSc1nnnn1-c1ccccc1)Nc1cccc(Br)c1,i
O=C(CSc1nnc(-c2ccccc2Cl)o1)c1cc2ccccc2oc1=O,i
O=C1CC(c2ccc(O)c(O)c2)Oc2cc(O)cc(O)c21 (stereo not drawn),i
CCCN(C)C[C@H]1Oc2cc(-c3ccc(OC)cc3)ccc2S(=O)(=O)N([C@H](C)CO)C[C@H]1C,i
CN(C)c1ccc2c(c1)[C@H]1C[C@H](CC(=O)NCc3ccc(Oc4ccccc4)cc3)O[C@H](CO)[C@H]1O2,i
O=C(NCCCO)c1cc2ccccc2oc1=O,i
COc1cccc(NC(=O)CN(c2ccc(Br)c(C)c2)S(C)(=O)=O)c1,i
CC(C)(C)c1ccc(OCC(=O)Nc2ncn[nH]2)c(Br)c1,i
COc1cc2c(cc1O)CCC1C2CC[C@@]2(C)C1CC[C@@H]2O (stereo partly drawn),i
CC(C)CC#Cc1cnc2c(c1)C(=O)N([C@H](C)CO)C[C@H](C)[C@H](CN(C)C(=O)CC1CC1)O2,i
Cc1ccc(NC(=O)C(C)Sc2nnc(-c3ccc([N+](=O)[O-])cc3)n2-c2ccccc2)cc1 (stereo not drawn),i
Cc1cccc(C)c1OC(=O)CCN1C(=O)C2C3C=CC(C4CC34)C2C1=O (stereo not drawn),i
CC1CC(Nc2ccccc2)c2ccccc2N1S(=O)(=O)c1ccc(Br)cc1 (stereo not drawn),i
COc1ccccc1NC(=O)Cc1c(OC)ccc2cc(Br)ccc12,i
c1ccc(-c2oc3ncnc(NCCN4CCOCC4)c3c2-c2ccccc2)cc1,i
Cc1ccc([N+](=O)[O-])c(OCCSc2ncccn2)c1,i
C[C@@H]1CN([C@@H](C)CO)C(=O)c2cc(C3=CCCCC3)cnc2O[C@H]1CN(C)Cc1cccc(F)c1,i
O=C(CN1C(=O)c2ccccc2S1(=O)=O)Nc1ccc(Br)cc1F,i
COc1ccc(NC(=O)CSc2c(C)nn(-c3nnc(C)c(=O)[nH]3)c2C)cc1,i
C[C@@H]1CN([C@H](C)CO)C(=O)c2cc(-c3cccnc3)cnc2O[C@@H]1CN(C)C(=O)Nc1ccc(C(F)(F)F)cc1,i
O=C(Nc1ccc(C(=O)OCc2cccc(C(=O)c3ccccc3)c2)cc1)c1ccccc1,i
COc1cccc(C(=O)Nc2ccc(NC(=O)C3CC=CCC3C(=O)O)cc2)c1 (stereo not drawn),i
C[C@H]1CN([C@@H](C)CO)C(=O)c2cc(-c3ccccc3F)cnc2O[C@@H]1CN(C)C,i
CSc1nc2c(Cl)cccc2c2c1c(=O)n(Cc1ccc(Cl)cc1)n2C,i
COc1ccc(Cl)cc1CN1CCC(CNC(=O)Nc2cccc(Cl)c2)CC1,i
Cc1c(C(=O)Nc2sc3c(c2C(=O)NCc2ccco2)CCCC3)oc2ccccc12,i
O=C(CSc1nnnn1-c1ccccc1)N1N=CCC1c1ccccc1 (stereo not drawn),i
COCC(=O)N(C)C[C@H]1Oc2ncc(/C=C/c3ccccc3)cc2C(=O)N([C@@H](C)CO)C[C@H]1C,i
N#C[C@@H]1[C@@H](c2ccccc2)[C@@H](CO)N1C(=O)c1ccccc1F,i
O=C(Cn1cc([N+](=O)[O-])cn1)Nc1ccc(F)cc1,i
COc1ccc(CNC(=O)N(C)C[C@H]2OCc3ccccc3-c3c(n(C)c4ccccc34)C(=O)N([C@H](C)CO)C[C@@H]2C)cc1,i
O=C(C[C@@H]1C=C[C@H](NC(=O)C2CCC2)[C@@H](CO)O1)NC1CCCCC1,i
O=[N+]([O-])c1cccc(S(=O)(=O)NCCOc2ccccc2-c2ccccc2)c1,i
CCOC(=O)c1ccc(NC(=O)CSc2nccc(=O)[nH]2)cc1,i
C[C@@H]1CN([C@@H](C)CO)C(=O)c2cc(C#Cc3ccccc3)cnc2O[C@@H]1CN(C)CC1CCOCC1,i
O=C(C[C@@H]1C=C[C@H](NC(=O)Nc2cc(F)ccc2F)[C@H](CO)O1)NCCCN1CCOCC1,i
C[C@@H]1CN([C@H](C)CO)C(=O)c2cc(C#CC3(O)CCCC3)cnc2O[C@H]1CN(C)Cc1cncnc1,i
C[C@H]1CN([C@@H](C)CO)S(=O)(=O)c2ccc(C#CCC3CCCC3)cc2O[C@H]1CN(C)C,i
CC(C)C(NS(=O)(=O)c1ccccc1F)C(=O)O (stereo not drawn),i
C[C@H](CO)N1C[C@H](C)[C@H](CN(C)Cc2ccccn2)Oc2ncc(-c3ccccc3)cc2C1=O,i
C=CCN1Cc2ccccc2[C@H]2OC(c3ccc(OCCCO)cc3)=N[C@@]2(CCS(=O)(=O)c2ccccc2)C1=O,i
Cc1ccc(S(=O)(=O)N[C@H]2C=C[C@@H](CC(=O)O)O[C@H]2CO)cc1,i
O=C(CC1CC1)Nc1ccc2c(c1)[C@H]1C[C@H](CC(=O)N3CCc4ccccc4C3)O[C@H](CO)[C@H]1O2,i
COc1ccc(-c2nnc(SCC(=O)Nc3cc(OC)ccc3OC)n2-c2ccccc2C)cc1,i
C[C@@H]1CN([C@H](C)CO)C(=O)c2cc(NC(=O)Cc3cn(C)c4ccccc34)ccc2O[C@H]1CN(C)C,i

In another format: 4 of the compounds above
CSc1nc2c(Cl)cccc2c2c1c(=O)n(Cc1ccc(Cl)cc1)n2C
  ID4 binder = i
CCOC(=O)c1ccc(NC(=O)CSc2nccc(=O)[nH]2)cc1
  ID4 binder = i
COc1ccc(CNC(=O)N(C)C[C@H]2OCc3ccccc3-c3c(n(C)c4ccccc34)C(=O)N([C@H](C)CO)C[C@@H]2C)cc1
  ID4 binder = i
COc1ccc(-c2nnc(SCC(=O)Nc3cc(OC)ccc3OC)n2-c2ccccc2C)cc1
  ID4 binder = i

Next section.
SMILES,ID4 binder
Cc1ccc(-n2c(SCC(=O)OC(C)C)nnc2-c2ccco2)cc1,i
O=C(C[C@@H]1C[C@@H]2c3cc(NC(=O)Nc4ccccc4)ccc3O[C@@H]2[C@@H](CO)O1)NCc1cccc(F)c1,i
CC(C)NC(=O)Cn1ccc([N+](=O)[O-])n1,i
C[C@@H]1CCCCO[C@H](CN(C)CC2CC2)[C@H](C)CN([C@H](C)CO)C(=O)c2cc(N(C)C)ccc2O1,i
O=[N+]([O-])c1ccccc1/C=C/CN1CCN(CCO)CC1,i
O=C(CSc1nc2ccccc2s1)Nc1ccc(Cl)c(C(F)(F)F)c1,i
COc1ccccc1CCNC(=O)c1cc(-c2ccncc2)nc2c(C)c(Cl)ccc12,i
COc1ccc(C(Nc2cc(C)ccn2)c2ccc3ccc(C)nc3c2O)cc1 (stereo not drawn),i
C[C@@H]1CN([C@@H](C)CO)S(=O)(=O)c2ccc(C#CC3CC3)cc2O[C@@H]1CN(C)C,i
CC(=O)N(C)C[C@H]1Oc2ncc(-c3ccc(C)cc3)cc2C(=O)N([C@H](C)CO)C[C@H]1C,i
Cc1cccc(NC(c2ccccc2)c2ccc3ccc(C)nc3c2O)n1 (stereo not drawn),i
O=C(CN1C(=O)c2cccc3cccc1c23)Nc1ccc(S(=O)(=O)N2CCCC2)cc1,i
Cc1ccc(S(=O)(=O)N(C)CC(=O)Nc2ccc([N+](=O)[O-])cc2)cc1,i
COc1ccc2[nH]cc(CCNC(N)=O)c2c1,i
Cc1ccc(NC(=O)COc2cc(C)c(Br)c(C)c2)c([N+](=O)[O-])c1,i
C[C@@H]1CN([C@@H](C)CO)S(=O)(=O)c2ccc(C3=CCCCC3)cc2O[C@@H]1CN(C)C,i
C[C@H]1CN([C@@H](C)CO)S(=O)(=O)c2ccc(C#CCN(C)C)cc2O[C@@H]1CN(C)C,i
CNC[C@@H]1Oc2ncc(C3=CCCCC3)cc2C(=O)N([C@H](C)CO)C[C@@H]1C,i
CCNS(=O)(=O)c1ccc(NC(=O)c2cc(-c3ccccn3)nc3c(C)c(C)ccc23)cc1,i
COCC(=O)N(C)C[C@@H]1Oc2cc(-c3cncnc3)ccc2S(=O)(=O)N([C@@H](C)CO)C[C@H]1C,i
COc1cc(S(=O)(=O)NCc2ccccn2)ccc1Br,i
O=C(C[C@@H]1CC[C@@H](NC(=O)Cc2ccccn2)[C@H](CO)O1)NCCc1ccccc1,i
CCCC#Cc1cnc2c(c1)C(=O)N([C@@H](C)CO)C[C@@H](C)[C@H](CN(C)C(=O)C1CC1)O2,i
C[C@@H]1CN([C@H](C)CO)C(=O)c2cc(C#CCN(C)C)cnc2O[C@H]1CN(C)C(=O)c1ccc(F)cc1,i
C[C@@H]1CN([C@@H](C)CO)S(=O)(=O)c2ccc(C#CC3CC3)cc2O[C@@H]1CN(C)CC1CC1,i
C[C@@H]1CN([C@@H](C)CO)C(=O)c2cc(C#CC3CC3)cnc2O[C@@H]1CN(C)C(=O)c1ccccc1,i
C[C@H](CO)N1C[C@H](C)[C@H](CN(C)CC2CC2)Oc2cc(-c3ccc(F)cc3)ccc2S1(=O)=O,i
CCN(CC(=O)O)S(=O)(=O)c1ccc(Cl)cc1,i
O=C(C[C@H]1C=C[C@H](NS(=O)(=O)c2ccc(F)cc2)[C@H](CO)O1)NC1CCCCC1,i
CN(CC(=O)Nc1ccc(Cl)cc1)S(=O)(=O)c1ccccc1,i
C[C@H]1CN([C@@H](C)CO)C(=O)c2cc(-c3ccc(C(=O)N(C)C)cc3)cnc2O[C@H]1CN(C)C(=O)C1CC1,i
Cc1ccc(OCCSc2nc(C)cc(=O)[nH]2)c(I)c1,i
O=C(N[C@@H]1C[C@H]2CC[C@@H]1C2)c1ccc(CSc2ccccc2)cc1,i
C[C@H](CO)N1C[C@H](C)[C@H](CN(C)C(=O)C2CCCCC2)Oc2ncc(-c3cccc(F)c3)cc2C1=O,i
Cc1cccc(OCCn2c(C(C)O)nc3ccccc32)c1 (stereo not drawn),i
CS(=O)(=O)N(CC(=O)O)c1cccc(Cl)c1,i
CC(Oc1ccc(Cl)cc1Cl)C(=O)Nc1cccc(-c2nc3ccccc3o2)c1 (stereo not drawn),i
Cc1ccc(N(CC(=O)Nc2ccc(I)cc2C)S(C)(=O)=O)cc1C,i
C/C=C/c1cnc2c(c1)C(=O)N([C@H](C)CO)C[C@@H](C)[C@H](CN(C)Cc1ccncc1)O2,i
Cn1c(=O)c2c(nc(Sc3nnc(N)s3)n2C)n(C)c1=O,i
CC(=O)c1cccc(NC(=O)CN(c2cccc(F)c2)S(C)(=O)=O)c1,i
CNC[C@@H]1Oc2ncc(Br)cc2C(=O)N([C@@H](C)CO)C[C@H]1C,i
CCCN(C)C[C@@H]1Oc2cc(C#CC3CCCCC3)ccc2S(=O)(=O)N([C@H](C)CO)C[C@@H]1C,i
CCn1c(SCC(=O)Nc2ccccc2N2CCOCC2)nnc1-c1ccccc1,i
C[C@H](CO)N1C[C@H](C)[C@@H](CN(C)CC2CCCC2)Oc2cc(C#CC3CC3)ccc2S1(=O)=O,i
O=C(CC1NCCNC1=O)Nc1ccc2c(c1)OCCO2 (stereo not drawn),i
COC(=O)c1ccccc1NC(=O)c1ccc(NS(=O)(=O)c2cccc3cccnc23)cc1,i
O=C(NCc1ccco1)c1ccc(Cl)c(S(=O)(=O)N2CCOCC2)c1,i
Cc1ccc(S(=O)(=O)N2C(=O)CCC2C(=O)Nc2cccc3c2CCCC3)cc1 (stereo not drawn),i
C[C@@H]1CN([C@@H](C)CO)C(=O)c2cc(/C=C/c3ccccc3)cnc2O[C@H]1CN(C)C(=O)CN(C)C,i

In another format: entries from further up.
C/C=C/c1cnc2c(c1)C(=O)N([C@H](C)CO)C[C@@H](C)[C@H](CN(C)Cc1ccncc1)O2
- ID4 binder = i
Cn1c(=O)c2c(nc(Sc3nnc(N)s3)n2C)n(C)c1=O
- ID4 binder = i
CC(=O)c1cccc(NC(=O)CN(c2cccc(F)c2)S(C)(=O)=O)c1
- ID4 binder = i

Additional entries:
SMILES,ID4 binder
C/C=C/c1ccc2c(c1)O[C@@H](CN(C)CC1CCOCC1)[C@@H](C)CN([C@H](C)CO)S2(=O)=O,i
Cn1cc(CNC(=O)c2cc(-c3ccncc3)nc3ccc(Br)cc23)cn1,i
CN1C(=O)c2ccccc2C(C(=O)NCc2ccco2)C1c1cn(C)c2ccccc12 (stereo not drawn),i
COc1ccc([N+](=O)[O-])cc1NC(=O)C1(c2ccc(OC)c(OC)c2)CCOCC1,i
C[C@H](CO)N1C[C@H](C)[C@@H](CN(C)C)Oc2ncc(C#CC3CC3)cc2C1=O,i
COc1cccc(C(Nc2cc(C)ccn2)c2ccc3ccc(C)nc3c2O)c1 (stereo not drawn),i
O=C(O)CCCC(=O)Nc1ccc(O)cc1,i
C/S(=N\S(=O)(=O)c1cccc2nsnc12)c1ncc(Cl)cc1C(F)(F)F (stereo not drawn),i
CN(C)CCNc1oc(COc2ccc(F)cc2)nc1C#N,i

Source: PubChem (Broad Institute)
